Bioassay records as filed in PubChem.
Choline anaer gr – growth inhibitors of anaerobic choline-fed gram-negatives, minimal medium, absorbance; AID 1963822, 2024; Gram-negative bacterium anaerobic choline minimal medium; stronger effect = lower value; many inactives read as strong as hits in the columns shown; 55,000 compounds, 0.2% hits; calls only;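 active means growth z-score on choline under -2 at 7 or 20 h with little or no fall on glycerol, limits in tiers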;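 further: stock transfer was 300 nL into about 50 µL; the organism is E. coli; final concentration not given here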
Choline anaer gr early – second read-out of Choline anaer gr, no call of its own (marks repeat the call); z-score; measured here: choline growth z-score, timepoint 1;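 score of optical density at 7 h as mean of two plates; lower means less growth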
* = called active by the depositor; i = inactive; & = joins results of further samples. An excerpt (hit frequency here may not be typical).

Order of results – Choline anaer gr, Choline anaer gr early
COc1cc(CNc2ncnc3c2CCC3)cc(OC)c1
    i, -1.7
O=C(NCCC1=CCCCC1)C1CCCN(c2ccc(-c3ccccc3)nn2)C1 (stereo not given)
    i, 0.17
O=C1Nc2ccc(Cl)cc2[C@@](C#CC2CC2)(C(F)(F)F)O1
    i, 0.36&0.03&0.25
COc1cc(NC(=O)NCCCn2c(-c3ccc(F)cc3)nc3cccnc32)cc(OC)c1
    i, 0.52
Cn1c(=O)c(=O)n(CCC(=O)NCc2ccc(Cl)cc2)c2ccccc21
    i, 1.2
O=C(CN1C(=O)CSc2ccc(C(=O)N3CCCC3)cc21)NCc1ccc2c(c1)OCO2
    i, -0.62
O=S(=O)(c1ccc(F)cc1)c1nc(-c2ccccc2)oc1N1CCCC1
    i, 0.84
Fc1ccc(-c2ccc(CNCCCn3ccnc3)o2)cc1
    i, -0.38
O=c1c2ccccc2n(Cc2cc(=O)n3ccccc3n2)c(=O)n1Cc1ccccc1
    i, 1.1
O=C(O)CCCC[C@@H]1CCSS1
    i, 0.72
c1cncc(-c2nnc3sc(Cc4ccc5c(c4)OCCO5)nn23)c1
    i, 0.76
Cc1[nH]c(C)c(S(=O)(=O)N2CCC(C(=O)N3CCN(c4ccccc4)CC3)CC2)c1C(=O)N1CCCCC1
    i, -0.74
O=C(c1ccccc1)N1CCN(c2cc(=O)n3nc(-c4ccccc4)sc3n2)CC1
    i, -1.6
Cc1ccc(-c2nc3sccn3c2Nc2ccc3c(c2)OCCO3)cc1
    i, -0.57
Cc1nn(CC(=O)Nc2cccc(N3CCn4c(nc5cc(Cl)ccc54)C3)c2)c(=O)c2ccccc12
    i, -0.23
COc1ccccc1-c1cc(C(=O)N2CCN(c3ccc(=O)n(-c4ccc(F)cc4)n3)CC2)[nH]n1
    i, 0.94
CC(C)CC(=O)Nc1ccc(S(=O)(=O)N2CCC(c3nc4ccccc4s3)CC2)cc1
    i, 0.06
Cc1ccccc1NC(=O)CSCc1cc(=O)c2ccccc2[nH]1
    i, -0.36
COc1ccc(C2=Nc3ccc(Cl)cc3NC(c3ccc(OC)cc3)=N2)cc1
    i, 0.8
CCN(Cc1ccccc1)c1ccc(NC(=O)c2ccc(OC)cc2)cc1C(=O)O
    i, 1.3
CCc1ccccc1NC(=O)C1CCN(S(=O)(=O)c2c(C)[nH]c(C)c2C(=O)N2CCCC2)CC1
    i, -0.94
COc1ccc(C2CC(=O)C3=C(C2)Nc2onc(C)c2C3c2ccc(OC)cc2OC)cc1 (stereo not given)
    i, -0.55
CCN(CC)S(=O)(=O)c1cc(-c2nnc(C)o2)co1
    i, -0.74
COc1ccc(Oc2cc3c(cc2NS(=O)(=O)c2ccc(OC)cc2)n(C)c(=O)c(=O)n3C)cc1
    i, 1
O=S(=O)(c1ccc2c(c1)OCCO2)N1CCn2cccc2C1c1ccccc1F (stereo not given)
    i, 0.17
Cc1cccc(NC(=O)c2cn(-c3ccccc3)nc2-c2ccccc2)c1
    i, 0.32
O=C(c1cc(C2CC2)[nH]n1)N1CCN(c2ccc(Cl)cc2)CC1
    i, 0.35
O=C(Nc1cccc2c1CCCC2)c1ccc(-n2nnc3cccnc32)cc1
    i, 0.39
CC(C)(Oc1ccc(Cl)cc1)C(=O)OCCOC(=O)c1cccnc1
    i, 0.09
O=C(c1cc2ccccc2[nH]1)N1CCN(S(=O)(=O)c2ccc3[nH]c(=O)sc3c2)CC1
    i, -1.6

One compound at a time, as listed above. Order of screens: Choline anaer gr | Choline anaer gr early
`Fc1ccc(-c2ccc(CNCCCn3ccnc3)o2)cc1` is listed as i | -0.38
`COc1cc(NC(=O)NCCCn2c(-c3ccc(F)cc3)nc3cccnc32)cc(OC)c1` is listed as i | 0.52

More results:
Order of results – Choline anaer gr, Choline anaer gr early
O=C(c1ccc(N2CCN(c3cccc(Cl)c3)CC2)nn1)N1CCc2ccccc21
    i, 0.1
COc1ccc(OC)c(C2C3=C(CC(c4ccc(O)c(OC)c4)CC3=O)Nc3onc(C)c32)c1 (stereo not given)
    i, -0.26
Cn1c(SCc2nc(-c3cccc(Cl)c3)no2)nc2cc3c(cc2c1=O)OCO3
    i, 0.53
CCOC(=O)C1CCN(C(=O)c2cc3cn(C4CC4)cc3s2)CC1
    i, 0.07
COc1ccc(-c2cc(C(=O)Nc3ccccc3)nn2C2CCS(=O)(=O)C2)cc1 (stereo not given)
    i, 1.6
CC1=C(c2ccc(C)c(C)c2)S(=O)(=O)NC1=NC1CCN(Cc2ccccc2)CC1
    i, -0.02
O=C(c1cc2c(s1)CCCC2)N1CCN(c2nnc3ccccn23)CC1
    i, 0.2
Fc1ccc(C2=Nn3cnnc3SC2)cc1
    i, -1.3
COc1cc(OC)cc(C(=O)NCc2ccc3c(c2)N(C(=O)c2ccc(Cl)cc2)CC3)c1
    i, -0.77
Cc1nn(-c2ccccc2)c(-n2cccc2)c1CNC(=O)Nc1cccc(Cl)c1
    i, 1.1
COc1ccc(-c2cc(N3CCN(C(=O)c4ccc(C(C)C)cc4)CC3)ncn2)cc1
    i, -0.26
c1ccc(-c2nnc3sc(-c4ccc5ccccc5n4)nn23)nc1
    i, 0.66
Cc1cccc2cc3c(nc12)N(C(=O)C(C)C)CC3
    i, 1.3
O=C(O)c1ccc(NC(=O)c2nsc3ccccc23)cc1
    i, 0.18
O=C(Cc1ccc(Cl)cc1)Nc1ccc2c(c1)NC(=O)CO2
    i, -1.6
CCOCCCNC(=O)c1nn(C)c2c1CCc1sccc1-2
    i, -0.89
O=C(Nc1cccc(N2CCCS2(=O)=O)c1)c1cccc(Br)c1
    i, -1.9
NC(=O)c1nc(Nc2ccccc2)sc1NC(=O)CCC1CCCC1
    i, 0.24
O=C(COc1ccccc1)NCC(c1ccccc1)c1c[nH]c2ccccc12 (stereo not given)
    i, 0.7
CC(C)CNC(=O)c1sc2ncccc2c1-n1cccc1
    i, -0.47
COc1cc(NC(=O)c2c(-c3ccccc3Cl)noc2C)c2ncccc2c1
    i, 0.01
C=CCSc1nn2c(=O)c(C)nnc2s1
    i, -1.2
Cc1cccc(NC(=O)NCc2c(C)nn(C)c2C)c1
    i, 0.67
CC(=O)Oc1cccc2c1C(=O)c1c(OC(C)=O)cc(C(=O)O)cc1C2=O
    i, 0&0.24
COc1cccc(-c2ccc(=O)n(CCc3nc(-c4ccc(C)cc4)no3)n2)c1
    i, 0.24
COc1cccc(CNC2=NCCNC23CCC(c2ccccc2)CC3)c1 (stereo not given)
    i, -0.11
COc1ccccc1N1CCN(C(=O)CCc2nc(-c3ccc(N4CCCC4)cc3)no2)CC1
    i, 1.1
O=C(C1CCN(c2ncnc3c2sc2ncccc23)CC1)N1CCOCC1
    i, -0.68
Cc1cc(Cl)ccc1NS(=O)(=O)c1cc(-c2nc(C(C)(C)C)cs2)cs1
    i, 1.2
Cc1ccc(N2C(=O)c3cc4occc4n3CC2(C)C(=O)NC2CCC(C)CC2)c(C)c1 (stereo not given)
    i, -0.3

Arranged by SMILES length (rising): 7 of the compounds above.
Order of results – Choline anaer gr, Choline anaer gr early
C=CCSc1nn2c(=O)c(C)nnc2s1
    i, -1.2
Cc1cccc(NC(=O)NCc2c(C)nn(C)c2C)c1
    i, 0.67
Cc1cccc2cc3c(nc12)N(C(=O)C(C)C)CC3
    i, 1.3
O=C(c1ccc(N2CCN(c3cccc(Cl)c3)CC2)nn1)N1CCc2ccccc21
    i, 0.1
COc1ccc(-c2cc(N3CCN(C(=O)c4ccc(C(C)C)cc4)CC3)ncn2)cc1
    i, -0.26
COc1cc(OC)cc(C(=O)NCc2ccc3c(c2)N(C(=O)c2ccc(Cl)cc2)CC3)c1
    i, -0.77
COc1ccc(OC)c(C2C3=C(CC(c4ccc(O)c(OC)c4)CC3=O)Nc3onc(C)c32)c1 (stereo not given)
    i, -0.26

Further compounds follow:
mol,Choline anaer gr,Choline anaer gr early
CCNc1cc(C)nc(Nc2ccc(NS(=O)(=O)c3ccc(OC)cc3)cc2)n1,i,-3.4
Cn1c(CNC(=O)C2CCC2)nc2c1CN(C(=O)c1ccc(C(F)(F)F)s1)CC2,i,0.72
CN(CC#N)C(=O)c1cnn2c3c(cnc12)CCCCCC3,i,0.67
CC(CNC(=O)CC(C)(C)CC1=NS(=O)(=O)c2ccccc2N1)CSc1ccc(Cl)cc1 (stereo not given),i,0.06
c1cncc(CNc2nc(C3CC3)nc3c2CCC3)c1,i,-1.9
Cc1ccc(CN2CCN(C3CCN(C(=O)c4ccc(C)c(F)c4)CC3)C(=O)C2=O)cc1,i,-0.81
COc1cc(C(=O)NCc2ccc(OCCN(C)C)cc2)cc(OC)c1OC,i,0.48
Cc1cc(Sc2ccccc2NC(=O)Nc2cccc(F)c2)n2ncnc2n1,i,-0.3
C=CCN1CC(c2nc3ccccc3n2CC)CC1=O (stereo not given),i,0.02
CCCn1cnc2nc(CSc3ccccc3NC(=O)Nc3ccc(Cl)cc3)cc(=O)n21,i,-0.1
Cc1ccccc1NC(=O)C1CCCN(S(=O)(=O)Cc2ccc(F)cc2)C1 (stereo not given),i,1.2
Cc1cc(C)c(/C=C/c2onc(C)c2S(=O)(=O)N2CCCC(C(=O)NC3CCCC3)C2)c(C)c1 (stereo not given),i,1.3
Cc1ccc(C(=O)N2CCc3ccc(CNC(=O)NC(C)(C)C)cc32)cc1,i,-0.66
COc1ccc(/C=C/c2nc(Cn3cnc4ccccc4c3=O)no2)cc1,i,0.5
CN(C)S(=O)(=O)c1ccc2c(c1)nc(C(F)(F)F)n2CCC(=O)Nc1cccc(Cl)c1,i,0.47
Cc1nc(C)c(C(=O)N2CCN(c3ccc(-c4noc(C5CC5)n4)cc3)CC2)s1,i,1.1
CCCc1cc(C2CCCN2Cc2cccc(Cl)c2)no1 (stereo not given),i,2
CC(=O)N1CCCSc2ccc(S(=O)(=O)Nc3ccc(C)cn3)cc21,i,1.2
COc1ccc(CN2CCCC2c2cc(C(C)C)on2)cc1CN1CCOCC1 (stereo not given),i,0.31
O=C(Nc1ccc2c(c1)Sc1ccccc1C(=O)N2C1CC1)C1CCC1,i,-0.2
Cc1nn(-c2ccc(F)cc2)c(C)c1S(=O)(=O)Nc1cc(F)ccc1F,i,-1.6
Cc1nnc2ccc(N3CCC(C)CC3)nn12,i,0.17
CC(=O)N1CCCc2cc(S(=O)(=O)N3CCC(C(=O)NCCN4CCc5ccccc5C4)CC3)ccc21,i,-0.41
CCc1cc2c(N3CCCC(C(=O)NCCN4CCCCC4)C3)ncnc2s1 (stereo not given),i,1.3
CCCCOc1ccc(NC(=O)c2cc(=O)c3ccc(C)cc3o2)c2cccnc12,i,0.37
O=C(NC1CC1)c1ccc2c(c1)nc1n2CCCCC1,i,-2.3
COc1ccc(Br)c(C(=O)Nc2ccc(-n3c(C)nc4ccccc4c3=O)cc2)c1,i,-0.92
Cc1noc(C)c1C1CCCN1C(=O)NCCC(C)C (stereo not given),i,0.72
COc1ccc2c(c1)CCc1c-2n[nH]c1C(=O)Nc1ccc2nc(NS(C)(=O)=O)sc2c1,i,1.2
NS(=O)(=O)c1cc2c(cc1C(F)(F)F)NCNS2(=O)=O,i,1.4
CCOc1cc(-c2cccc(OC)c2)nc2ccc(C(=O)NCc3ccccc3Cl)cc12,i,3.1
Cc1ccc(NC(=O)CSc2nc(=O)n(Cc3ccncc3)c3c2CCC3)cc1F,i,0.01
CCOC(=O)c1cccc(NS(=O)(=O)c2c(C)nn(-c3ccc(-c4ccccc4)nn3)c2C)c1,i,0.97
Cn1c(CCc2ccc(NC(=O)C3CCCN(S(=O)(=O)N4CCCC4)C3)cc2)nc2ccccc21 (stereo not given),i,-0.88
CCOCCCNC(=O)C1c2c(n(C)c3ccccc23)SCC(=O)N1Cc1cccnc1 (stereo not given),i,-0.85
Cc1cc(SCC(=O)Nc2ccc3c(c2)OCO3)nc2ccc(S(=O)(=O)N(C)C)cc12,i,1.6
COc1ccc(NS(=O)(=O)c2cnc(N)nc2)cc1,i,0.28
O=C(NC1CCCC1)c1ccc(-n2nc(OCc3ccc(Cl)cc3)ccc2=O)cc1,i,0.45
O=C1CCCc2[nH]c(=O)c(C(=O)Nc3ccccc3Cl)cc21,i,-1.1
CC1(C(=O)NC2CCCC2)Cn2c(cc3ccccc32)C(=O)N1c1ccc2c(c1)OCO2 (stereo not given),i,-0.11
O=C(c1cc(-c2ccccn2)n[nH]1)N1CCC(C(=O)N2CCc3ccccc3C2)CC1,i,-0.03
N#Cc1nc(-c2ccc(S(=O)(=O)N3CCCCC3)cc2)oc1N1CCCCC1,i,-0.31
O=C(C1CCCN(c2nn3c(=O)c4c(nc3s2)CCCC4)C1)N1CCN(c2ccccc2)CC1 (stereo not given),i,0.09
CC1CCN(S(=O)(=O)c2nnc(NC(=O)c3cccc(Cl)c3)s2)CC1,i,-0.34
Fc1ccc(-n2ncc3c(NCCN4CCOCC4)ncnc32)cc1,i,-1.6
COc1ccc(N(CC(=O)N2CCN(c3ccc(F)cc3)CC2)S(=O)(=O)c2ccc(OC)c(OC)c2)cc1,i,0.57
CCc1ccc(-n2c(=O)c3cccnc3n2CC(=O)Nc2cc(C)ccc2C)cc1,i,-0.83
O=C(COCc1cc(-c2ccc3c(c2)OCO3)on1)Nc1ccc(Cl)cn1,i,-2.5
COc1ccc(C(=O)CSC2=NS(=O)(=O)c3cc(F)ccc3N2)cc1,i,1.6
CC(C)c1ccc(S(=O)(=O)N2CCN(c3cc(=O)n4nc(-c5ccccc5)sc4n3)CC2)cc1,i,-1.4
CC1CCC(NS(=O)(=O)c2ccc(-c3cnc(C4CCC4)o3)s2)CC1 (stereo not given),i,1
CC(C)n1cnc(S(=O)(=O)N2CCC(C(=O)NCCC3=CCCCC3)CC2)c1,i,1.3
